Rango-impB inh – inhibitors of Rango-importin beta complex formation | Q14974 | Rango CFP/YFP FRET sensor + importin beta, 45 min | Potency, µM (series often up to 92.2 µM), for inactives: at the top dose inhibition of complex formation | 340,000 compounds, 0.031% hits; active = rising FRET ratio curve, often small or poorly fitted; inconclusive = mostly compound fluorescence or quenching in the first reads; inactive = flat curves in all reads;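 note: potency is the fitted concentration of half-maximal effect; 0% = DMSO wells and 100% = buffer wells lacking importin beta; nearly all actives have a fitted effect of over 15% in size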
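Inhibition scored from the CFP 486 nm/YFP 530 nm FRET ratio 45 min after adding 0.125 microM importin beta to 50 nM Rango biosensor preincubated 5 min with compound (room temperature, PBS with DTT, Tween-20, BSA). No-importin wells as positive control.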
miR-21 reporter – miR-21 reporter, rising signal; HeLa miR-21 FLuc reporter, luciferase, 48 h; Potency, µM (series often up to 38.3 µM), inactives show at the highest dose reporter change, positive = more light; 340,000 tested, under 10 active; AID 2288; active = well fitted rising curve with a large enough effect; inconclusive = small, poorly fitted or top-dose-only effect; inactive = no such curve, though single readings can be large or run the other way;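 note: % of control where 0% means no effect; miR-21 action dims this reporter so a rising signal means less miR-21 action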
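HeLa cells stably expressing CMV-driven firefly luciferase with a downstream miR-21 binding sequence, endogenously expressing miR-21, were treated with titrations (up to about 40uM final) for 48 hours at 37 degree Celsius. Luciferase luminescence was read after lysis.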
Rango dissoc inh – inhibitors of RanGTP-induced Rango-importin beta complex dissociation; 340,000 compounds, 0.071% hits; Potency, µM (doses to about 46.1 µM), for inactives: top-dose activity change, negative = inhibition; Biochemical FRET Rango-importin beta, RanGTP-induced dissociation; O95149+P62826; active means falling FRET ratio curve, often poorly fitted, with flat reads before Ran was added; inconclusive means other falling curves, or compound fluorescence or quenching; inactive means flat or rising ratio curve;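 note: potency is the fitted concentration of half-maximal effect; % of control where 0% means no effect; nearly all actives have a fitted effect of over 45% in size; -100% = wells without RanGTP and RCC1; the record marks most hits as doubtful in a second field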
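Compounds preincubate 5 min with complex of recombinant Rango and importin beta in PBS with 1 mM DTT. Ran (0.6 uM) loaded with 2 mM GTP plus 0.2 uM RCC1 starts dissociation; FRET is recorded 45 min later.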
GLA inh pH 4.5 – blocks human alpha-galactosidase A at pH 4.5; P06280; activity change, negative = inhibition, % at 105 µM; purified enzyme, 4-MU-alpha-Gal fluorescence, pH 4.5; 230,000 tested, under 10 active; inconclusive = small, poorly fitted or top-dose-only inhibition, or a rising curve; inactive = flat fitted curve, though single readings scatter; no compound was filed as active;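 note: 0% = full activity with enzyme and -100% = basal without enzyme; dose as in the result columns while the protocol names 77 µM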
Target sequence (P06280 whole entry, looked up): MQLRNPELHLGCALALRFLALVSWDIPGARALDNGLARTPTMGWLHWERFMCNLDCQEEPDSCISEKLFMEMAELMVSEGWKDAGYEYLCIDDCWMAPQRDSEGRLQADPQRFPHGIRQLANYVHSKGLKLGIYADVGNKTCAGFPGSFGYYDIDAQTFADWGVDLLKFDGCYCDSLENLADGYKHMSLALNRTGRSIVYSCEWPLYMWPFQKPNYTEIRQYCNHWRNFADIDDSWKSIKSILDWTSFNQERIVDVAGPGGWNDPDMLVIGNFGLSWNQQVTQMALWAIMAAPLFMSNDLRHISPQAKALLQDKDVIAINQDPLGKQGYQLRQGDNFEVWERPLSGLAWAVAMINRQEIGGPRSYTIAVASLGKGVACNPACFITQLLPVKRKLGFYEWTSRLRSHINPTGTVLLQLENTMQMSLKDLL
Numbers without * were called inactive; ? = inconclusive; · = not tested or not shown; & = joins results of further samples. These rows are one share of the data. The share of hits here may be higher or lower than overall.

Rango-impB inh	miR-21 reporter	Rango dissoc inh	GLA inh pH 4.5	SMILES
-0.8%	-3%	-11%	·	O=S(=O)(c1ccccc1)N1CCN(C(=S)Nc2ccccc2)CC1
2.6%	-13%	1%	3	CC#CCC(CC#CC)c1nc2ccccc2c(=O)n1N
4.6%	-1%	-10%	2	CCCCNC(=O)Nc1nc(SCC(=O)OCC)n[nH]1
1.9%	-17%	2%	8	COCCn1c(Sc2ccccc2)nc2c1c(=O)[nH]c(=O)n2C
1.6%	3%	18%	0	O=C(CSc1nc2ncccc2[nH]1)Nc1ccc2c(c1)OCO2
-0.1%	-10%	18%	6	CCOC(=O)c1oc2ccccc2c1CN1CCN(C(=O)c2ccccc2)CC1
-4.1%	·	8%	·	O=C(COc1ccc2ccc(=O)oc2c1)Nc1cc([N+](=O)[O-])ccc1F
-2.5%	-3%	6%	·	O=C(NCC1CCCO1)C(c1ccco1)N(Cc1ccc(F)cc1)C(=O)CN1C(=O)c2ccccc2S1(=O)=O (stereo unspecified)

The listing continues:
Rango-impB inh	miR-21 reporter	Rango dissoc inh	GLA inh pH 4.5	SMILES
-0.6%	1%	-23%	7	CC(Oc1cc(F)ccc1[N+](=O)[O-])C(=O)N(C)CC(=O)Nc1ccccc1C(F)(F)F (stereo unspecified)
8.6%	-8%	-13%	·	Cc1cccc(OCC(=O)NS(=O)(=O)c2ccc(Br)cc2)c1
-0.4%	-14%	4%	-8	S=c1[nH]nc(-c2ccc3ccccc3n2)n1-c1ccc(Cl)cc1
2.7%	-10%	2%	·	COCCN1CCN(C(=O)c2ccc3nc(Cc4ccccc4F)oc3c2)CC1
-6.9%	-5%	-3%	1	CC(=O)c1c(C)[nH]c(C(=O)CSc2nnc(CN3CCCCCC3=O)n2-c2ccccn2)c1C
-6.6%	·	8%	·	CSc1ccc(NC(=O)CSc2nc3[nH]c(=O)cc(O)c3s2)cc1
-3.6%	-13%	-15%	-2	Cc1cc(C)nc(SCC(=O)c2cc3ccccc3oc2=O)n1
1.6%	·	20%	·	CC(C)(C)C(=O)COC(=O)c1cc(S(=O)(=O)N2CCCCC2)ccc1N1CCOCC1

The results go on:
Rango-impB inh	miR-21 reporter	Rango dissoc inh	GLA inh pH 4.5	SMILES
1.7%	-10%	-6%	-1	CCCNC(=O)Cn1cnc2sc(C(=O)Nc3ccc4c(c3)OCO4)c(C)c2c1=O
0.7%	1%	1%	·	CC(C)[C@H]1C(=O)Nc2ccccc2N1C(=O)N[C@@H](Cc1ccccc1)C(=O)N[C@@H](Cc1ccccc1)C(=O)O
-3.0%	19%	-2%	-10	FC(F)(F)c1nc(N2CCCC2)ncc1-c1nnnn1-c1ccc(Cl)cc1
-3.8%	-5%	-4%	0	CC(C)COC(=O)N1CCCC1C(=O)O (stereo unspecified)
-0.3%	·	-13%	·	CCN(Cc1ccccc1)C(=O)COC(=O)c1cc(S(=O)(=O)Nc2ccccc2OC)ccc1O
4.4%	1%	12%	0	Cc1cc(S(=O)(=O)N2CCOCC2)ccc1F
0.1%	-1%&5%	-14%	·	CN1C(=O)CC(=O)N(C)c2cc(S(=O)(=O)N(C)Cc3ccccc3)ccc21
12%	-1%	4%	-7	CC(=O)/C(=N/Nc1ccc([N+](=O)[O-])cc1)N1CCCc2ccccc21

(more compounds)
Rango-impB inh	miR-21 reporter	Rango dissoc inh	GLA inh pH 4.5	SMILES
-0.2%	-8%	-15%	1	O=C(O)C1CC=C(Cl)CC1C(=O)NCC1OCCc2ccccc21 (stereo unspecified)
0.8%	-7%	-16%	-10	O=C(O)Cc1sc(NCc2ccco2)nc1-c1ccccc1
0.3%	-5%	-17%	·	CC(NC(=O)CCC(=O)N1CCCCCC1)c1ccccc1 (stereo unspecified)
0.5%	-2%	15%	1	COc1ccc(CCN2C(=O)CC(Cc3ccc(Br)cc3)C2=O)cc1OC (stereo unspecified)
-0.5%	-20%	0%	-6	O=C(NCc1ccccc1Cl)C1CCN(S(=O)(=O)N2CCCCC2)CC1
-1.4%	-4%	3%	-2	O=C1C=C(N2CCN(C3=CC(=O)CCC3)CC2)CCC1
1.8%	-4%	17%	-5	O=C(O)Cc1sc(-c2ccccc2)nc1-c1ccccc1
-1.5%	0%	?	·	CC12CCC(=O)N1C(C(=O)Nc1ccc(Br)cc1Cl)CS2 (stereo unspecified)

Structural class: the compounds so far containing a CF3 group (2)
Rango-impB inh	miR-21 reporter	Rango dissoc inh	GLA inh pH 4.5	SMILES
-0.6%	1%	-23%	7	CC(Oc1cc(F)ccc1[N+](=O)[O-])C(=O)N(C)CC(=O)Nc1ccccc1C(F)(F)F (stereo unspecified)
-3.0%	19%	-2%	-10	FC(F)(F)c1nc(N2CCCC2)ncc1-c1nnnn1-c1ccc(Cl)cc1

The list goes on.
Rango-impB inh	miR-21 reporter	Rango dissoc inh	GLA inh pH 4.5	SMILES
-2.1%	-57%	4%	-10	COc1cc(CNc2ncn[nH]2)ccc1OCc1cccc(C)c1
-0.2%	-13%	5%	-12	COc1ccc(-n2cnnc2SCC(=O)c2ccc(S(=O)(=O)N3CCOCC3)cc2)cc1
·	9%	·	2	CCc1ccc(S(=O)(=O)/N=C2\C=CC(=O)c3ccccc32)cc1
-0.9%	3%	4%	9	Cc1ccccc1C(=O)N(Cc1nc2ccccc2c(=O)[nH]1)C1CCCC1
-3.5%	-6%	5%	·	O=C(CN1CCOC1=O)N1CCCC(Nc2ccc(F)c(F)c2)C1 (stereo unspecified)
2.5%	5%	13%	0	CC(C)(O)CC[C@@H](O)[C@](C)(O)[C@H]1CC[C@@]2(O)C3=CC(=O)[C@@H]4C[C@@H](O)[C@@H](O)C[C@]4(C)C3CC[C@]12C (stereo partly specified)
-0.6%	-46%	-10%	1	CC(C)c1ccc(OCC(=O)NCCO)cc1
-2.7%	1%	-3%	2	COc1ccccc1N1CCN(Cc2nc3ccccc3c(=O)n2CC(C)=O)CC1

Additional compounds
Rango-impB inh	miR-21 reporter	Rango dissoc inh	GLA inh pH 4.5	SMILES
3.6%	2%	3%	-1	CCCOc1ccc(N2C(=O)CC(N(CCc3ccccc3)C(=O)c3ccccc3)C2=O)cc1 (stereo unspecified)
-0.1%	·	-8%	·	C=CCC[C@H](Cc1ccc(F)cc1)C(=O)OC[C@H]1CCCN1C(=O)[C@@H](CC=C)CC(=O)NCCO
-3.7%	1%	-10%	-23	CCCCCC(=O)NNC1=NCC(Cc2cccc(Cl)c2)S1 (stereo unspecified)
-2.4%	·	-23%	·	COc1cc(NC(=O)COC(=O)CO/N=C(\C)c2ccc3c(c2)OCO3)cc(OC)c1
1.6%	·	7%	·	Cc1ccc(CN2C(=O)C(C)Nc3ncnc(N4CCN(c5ccccn5)CC4)c32)cc1 (stereo unspecified)
-2.5%	1%	-13%	-10	Cc1cc(C)c(NC(=O)C2CCCN2CCOC(=O)c2ccccc2)c(C)c1 (stereo unspecified)
0.0%	-5%	-7%	19	CCN(CC(=O)NC1CCS(=O)(=O)C1)S(=O)(=O)c1ccc(F)cc1 (stereo unspecified)
0.2%	-13%	-3%	7	O=C(NC(=S)Nc1cc(C(F)(F)F)ccc1Cl)c1ccccc1

Next part
Rango-impB inh	miR-21 reporter	Rango dissoc inh	GLA inh pH 4.5	SMILES
3.8%	0%	-3%	-1	O=C(Oc1cccc(Oc2ccccc2)c1)N1CCOCC1
-2.6%	16%	-16%	3	COc1ccc(CNC(=O)Cn2cnc3c(=O)n(C)c(=O)n(C)c32)cc1
-3.2%	0%	29%	3	Clc1ccc(-c2nc3ccccc3nc2-c2ccccc2)cc1
-1.0%	·	1%	·	CCCCCCCCN1N=N[C@H]2[C@H]1[C@@H]1C[C@H]2N(C(=O)OC(C)(C)C)O1
1.7%	-8%	3%	3	Cc1cc(N2CCOCC2)nc2ccc(NC(=S)NCc3ccc4c(c3)OCO4)cc12
1.3%	1%	2%	-1	O=C(/C=C/c1ccccc1)N/C(=C/c1ccccc1)C(=O)NCCO
-1.3%	9%	-4%	4	CCOc1ccccc1C(=O)NC(C(=O)NCc1ccccc1OC)C(C)C (stereo unspecified)
0.0%	-4%	-6%	-5	COc1ccccc1OC1=NS(=O)(=O)c2ccccc21

Compounds listed so far that contain a COOH group:
Rango-impB inh	miR-21 reporter	Rango dissoc inh	GLA inh pH 4.5	SMILES
0.7%	1%	1%	·	CC(C)[C@H]1C(=O)Nc2ccccc2N1C(=O)N[C@@H](Cc1ccccc1)C(=O)N[C@@H](Cc1ccccc1)C(=O)O
-3.8%	-5%	-4%	0	CC(C)COC(=O)N1CCCC1C(=O)O (stereo unspecified)
-0.2%	-8%	-15%	1	O=C(O)C1CC=C(Cl)CC1C(=O)NCC1OCCc2ccccc21 (stereo unspecified)
0.8%	-7%	-16%	-10	O=C(O)Cc1sc(NCc2ccco2)nc1-c1ccccc1
1.8%	-4%	17%	-5	O=C(O)Cc1sc(-c2ccccc2)nc1-c1ccccc1

Remaining list, next part.
Rango-impB inh	miR-21 reporter	Rango dissoc inh	GLA inh pH 4.5	SMILES
-2.9%	-2%	-4%	·	COc1ccc(NC(=O)CCc2nnc3ccc(NCc4ccco4)nn23)cc1
?	-12%	-17%	1	NS(=O)(=O)c1ccc(N=Nc2ccc(=O)[nH]c2O)cc1
?	·	-16%	·	Cc1ccc(OCCC(=O)OCC(=O)Nc2ccc(N3CCOCC3)cc2)cc1
3.4%	-1%	0%	2	O=C(CP(=O)(c1ccccc1)c1ccccc1)N1CCCCC1
0.1%	2%	-9%	-16	CCCS(=O)(=O)c1c(S(=O)(=O)CCC)c2cnccn2c1C(=O)c1ccc(Cl)cc1
-1.0%	-2%	10%	5	O=S(=O)(c1ccc(F)c(F)c1F)N1CCN(C(=S)NC2CC3CCC2C3)CC1 (stereo unspecified)
0.4%	1%	10%	0	CC(=O)Nc1ccc(-n2c(C)c(C(C)=O)c(C(C)=O)c2C)cc1
0.8%	-2%	-6%	-5	COc1ccc(N(Cc2cc3ccc(C)cc3[nH]c2=O)C(=O)C2CCCO2)cc1 (stereo unspecified)

Looked up by structure from above, 3 records:
Rango-impB inh	miR-21 reporter	Rango dissoc inh	GLA inh pH 4.5	SMILES
1.6%	·	20%	·	CC(C)(C)C(=O)COC(=O)c1cc(S(=O)(=O)N2CCCCC2)ccc1N1CCOCC1
-3.8%	-5%	-4%	0	CC(C)COC(=O)N1CCCC1C(=O)O (stereo unspecified)
-2.1%	-57%	4%	-10	COc1cc(CNc2ncn[nH]2)ccc1OCc1cccc(C)c1

(continued)
Rango-impB inh	miR-21 reporter	Rango dissoc inh	GLA inh pH 4.5	SMILES
1.5%	?	-11%	·	CN1CCN(CCCNC(=O)c2ccc(/C=C3\Oc4ccccc4N(Cc4ccc(Cl)cc4)C3=O)cc2)CC1
0.6%	-6%	10%	1	CCC(C)NCCOc1ccc(Br)cc1 (stereo unspecified)
4.5%	-28%	3%	?	COc1ccc(C2Nc3ccccc3C(=O)N2c2ccc(F)cc2)cc1CSc1ccccn1 (stereo unspecified)
-3.7%	4%	-15%	·	Cc1ccc(N(CC2CO2)S(=O)(=O)c2ccccc2[N+](=O)[O-])cc1 (stereo unspecified)
